AF4-AF9 inh = blocks AF4 peptide binding to human AF9; AlphaScreen, biotin-AF4 peptide binding to FLAG-AF9; AID 651704; inhibition, % at 10 µM; P42568; 350,000 compounds, 0.47% hits;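 active = every replicate reaching a set inhibition limit, whatever the replicate mean, cut at about 25% in these data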;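 note: 0% = plate neutral control median and 100% = total signal loss; the record names both 10 and 1 µM as test concentration; the first replicate is given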
Target sequence (P42568 whole entry, looked up): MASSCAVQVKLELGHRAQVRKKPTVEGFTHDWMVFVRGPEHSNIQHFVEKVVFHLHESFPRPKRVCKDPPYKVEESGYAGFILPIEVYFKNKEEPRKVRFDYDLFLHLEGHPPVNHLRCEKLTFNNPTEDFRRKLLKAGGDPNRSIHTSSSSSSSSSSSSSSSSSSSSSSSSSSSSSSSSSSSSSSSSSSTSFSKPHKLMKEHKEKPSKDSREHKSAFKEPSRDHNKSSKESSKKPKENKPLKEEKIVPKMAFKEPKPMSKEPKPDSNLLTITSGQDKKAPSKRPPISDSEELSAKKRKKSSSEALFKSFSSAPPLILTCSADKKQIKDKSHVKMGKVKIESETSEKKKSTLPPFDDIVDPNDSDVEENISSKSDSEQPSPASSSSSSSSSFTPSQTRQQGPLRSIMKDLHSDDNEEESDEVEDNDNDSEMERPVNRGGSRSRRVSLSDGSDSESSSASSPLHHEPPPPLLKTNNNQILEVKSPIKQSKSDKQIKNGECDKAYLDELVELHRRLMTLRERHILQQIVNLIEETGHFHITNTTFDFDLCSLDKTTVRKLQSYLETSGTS
Ecoli rRNA inh = selective bacterial rRNA inhibition in E. coli; GFP signal change (wild-type ribosome), % (concentration not given with the values); E. coli WT GFP vs humanized-ribosome RFP mutants, fluorescence, 24 h; stronger effect = lower value; DMSO median 0, no signal -100; 350,000 compounds, 1.6% hits;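 active = significant combined selectivity score with lowered wild-type GFP, culture density cut under 30%, mutant RFP and density less affected; inactive = any of these conditions unmet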; note: one replicate is shown; some compounds called inactive have numbers as strong as hits
FGF22 binding = binders of recombinant human FGF22 by thermal shift; 340,000 compounds, 1.5% hits; Q9HCT0; AID 651658; SYPRO orange fluorescence; percent of sucrose octasulfate shift, DMSO zero; calls only at 9.99 µM;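 active = melting point raised past a set limit in the mean and every replicate; three in four hits are not shown here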
Target sequence (Q9HCT0 whole entry, looked up): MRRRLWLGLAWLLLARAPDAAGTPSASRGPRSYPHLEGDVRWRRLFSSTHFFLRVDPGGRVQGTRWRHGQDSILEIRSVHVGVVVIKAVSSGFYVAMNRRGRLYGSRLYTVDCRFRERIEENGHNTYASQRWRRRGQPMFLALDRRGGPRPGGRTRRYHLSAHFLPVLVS
Ecoli rRNA inh OD600 = also measured in Ecoli rRNA inh; calls as there; OD600 change, %; measured here: OD600 growth;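 optical density of the mix in the first replicate; 0 = DMSO median and -100 = no signal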
Ecoli rRNA inh RFP = also measured in Ecoli rRNA inh; calls as there; RFP signal change, %; measured here: RFP humanized mutant strains;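 first replicate; 0 = DMSO median and -100 = no signal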
Starred values were filed as active, the others as inactive; i = inactive. An excerpt. The share of hits here may be higher or lower than overall.

SMILES	AF4-AF9 inh	Ecoli rRNA inh	Ecoli rRNA inh OD600	Ecoli rRNA inh RFP	FGF22 binding
CO[C@H]1CN(C)C(=O)c2ccc(NC(=O)Nc3cccc(Cl)c3)cc2OC[C@@H](C)N(C(=O)Nc2c(C)noc2C)C[C@@H]1C	4.1	-4	-14	5.2	i
CCCC(O)C#Cc1cnc2c(c1)C(=O)N([C@H](C)CO)C[C@H](C)[C@H](CN(C)S(=O)(=O)c1ccc(C#N)cc1)O2 (some centres not stated)	-2.9	4	17	0.9	i
CCS(=O)(=O)Nc1ccc2c(c1)C(=O)N(C)[C@@H]1CC[C@@H](CC(=O)NCCCN3CCOCC3)O[C@H]1CO2	-0.9	2	10	-0.4	i
Cc1noc(C)c1S(=O)(=O)N(C)C[C@H]1Oc2ccc(NS(=O)(=O)c3cccs3)cc2CC(=O)N([C@H](C)CO)C[C@@H]1C	5.2	-1	0	0.4	i
O=C(C[C@H]1C[C@@H]2c3cc(NS(=O)(=O)c4ccc(F)cc4)ccc3O[C@@H]2[C@H](CO)O1)NCc1ccncc1	-0.2	1	5	-1.4	i
C[C@@H]1CCCCO[C@H](CN(C)S(=O)(=O)c2ccc(F)cc2)[C@@H](C)CN([C@@H](C)CO)C(=O)c2cc(NS(=O)(=O)c3cccs3)ccc2O1	-0.5	-4	-3	2.4	i
CS(=O)(=O)N1CC(=O)N2[C@@H](CO)[C@H](c3ccc(C#CCc4ccccc4)cc3)[C@@H]2C1	1.0	0	13	-3.0	i
COc1ccccc1-c1ccc2c(c1)O[C@H](CN(C)CC1CCOCC1)[C@H](C)CN([C@H](C)CO)S2(=O)=O	3.1	-4	-9	-0.3	i
O=C(C[C@H]1CC[C@H](NC(=O)Nc2ccccc2F)[C@H](CO)O1)NCc1ccc(Cl)cc1	1.5	3	8	-2.1	i
C[C@H](CO)N1C[C@H](C)[C@H](CN(C)C(=O)Nc2ccc3c(c2)OCO3)Oc2ccc(NC(=O)CCN3CCOCC3)cc2CC1=O	0.3	5	6	-0.2	i

The list goes on, starting with the last two of the part before.
SMILES	AF4-AF9 inh	Ecoli rRNA inh	Ecoli rRNA inh OD600	Ecoli rRNA inh RFP	FGF22 binding
O=C(C[C@H]1CC[C@H](NC(=O)Nc2ccccc2F)[C@H](CO)O1)NCc1ccc(Cl)cc1	1.5	3	8	-2.1	i
C[C@H](CO)N1C[C@H](C)[C@H](CN(C)C(=O)Nc2ccc3c(c2)OCO3)Oc2ccc(NC(=O)CCN3CCOCC3)cc2CC1=O	0.3	5	6	-0.2	i
CC(=O)C1CCC2C3CCC4=CC(=O)C=CC4(C)C3C(=O)CC12C (configuration not stated)	3.5	-12	-20	-1.2	i
O=C(C[C@@H]1C[C@H]2c3cc(NC(=O)CC4CC4)ccc3O[C@H]2[C@@H](CO)O1)NCc1ccccn1	-4.7	1	6	-5.3	i
Cc1ccccc1S(=O)(=O)NCC[C@@H]1CC[C@@H](NS(=O)(=O)c2ccccc2C)[C@@H](CO)O1	-0.3	-2	-2	-0.4	i
CC(C)NC(=O)Nc1cccc2c1O[C@H](CN(C)C(=O)Nc1cccc3ccccc13)[C@H](C)CN([C@H](C)CO)C2=O	0.4	5	2	0.0	i
CCCCC(=O)N(C)c1c(CC)nc2c(OCCOC)cccn12	-4.3	5	14	-1.2	i
COc1ccccc1-c1cnc2c(c1)C(=O)N([C@H](C)CO)C[C@@H](C)[C@@H](CN(C)Cc1cccc(F)c1)O2	2.2	2	-1	-0.6	i
C[C@H]1CN([C@@H](C)CO)C(=O)Cc2cc(NC(=O)Nc3cccc4ccccc34)ccc2O[C@H]1CN(C)C(=O)Nc1cccc2ccccc12	-0.2	-5	-5	-0.7	i
CCc1ccc(CN(C)C(C)C(=O)Nc2ccc(S(=O)(=O)N3CCCC3)cc2)cc1 (configuration not stated)	-3.9	-6	-32	14	i
CCCNC(=O)C[C@@H]1CC[C@@H]2[C@@H](COc3ccc(NC(=O)c4ccc(Cl)cc4)cc3C(=O)N2C)O1	0.8	-3	-3	0.4	i
C[C@@H]1CN([C@@H](C)CO)C(=O)c2cccc(NS(=O)(=O)c3cn(C)cn3)c2O[C@H]1CN(C)Cc1ccc(C(=O)Nc2ccccc2N)cc1	3.4	3	7	-0.6	i

Part of the list above, reformatted:
CO[C@H]1CN(C)C(=O)c2ccc(NC(=O)Nc3cccc(Cl)c3)cc2OC[C@@H](C)N(C(=O)Nc2c(C)noc2C)C[C@@H]1C
  AF4-AF9 inh: 4.1; Ecoli rRNA inh: -4; Ecoli rRNA inh OD600: -14; Ecoli rRNA inh RFP: 5.2; FGF22 binding: i

CCCC(O)C#Cc1cnc2c(c1)C(=O)N([C@H](C)CO)C[C@H](C)[C@H](CN(C)S(=O)(=O)c1ccc(C#N)cc1)O2 (some centres not stated)
  AF4-AF9 inh: -2.9; Ecoli rRNA inh: 4; Ecoli rRNA inh OD600: 17; Ecoli rRNA inh RFP: 0.9; FGF22 binding: i

Some of the entries above in another layout:
O=C(C[C@H]1CC[C@H](NC(=O)Nc2ccccc2F)[C@H](CO)O1)NCc1ccc(Cl)cc1
  AF4-AF9 inh = 1.5 | Ecoli rRNA inh = 3 | Ecoli rRNA inh OD600 = 8 | Ecoli rRNA inh RFP = -2.1 | FGF22 binding = i
C[C@H](CO)N1C[C@H](C)[C@H](CN(C)C(=O)Nc2ccc3c(c2)OCO3)Oc2ccc(NC(=O)CCN3CCOCC3)cc2CC1=O
  AF4-AF9 inh = 0.3 | Ecoli rRNA inh = 5 | Ecoli rRNA inh OD600 = 6 | Ecoli rRNA inh RFP = -0.2 | FGF22 binding = i
CC(=O)C1CCC2C3CCC4=CC(=O)C=CC4(C)C3C(=O)CC12C (configuration not stated)
  AF4-AF9 inh = 3.5 | Ecoli rRNA inh = -12 | Ecoli rRNA inh OD600 = -20 | Ecoli rRNA inh RFP = -1.2 | FGF22 binding = i

(listing goes on)
SMILES	AF4-AF9 inh	Ecoli rRNA inh	Ecoli rRNA inh OD600	Ecoli rRNA inh RFP	FGF22 binding
COc1cccc(S(=O)(=O)N[C@@H]2C=C[C@@H](CC(=O)NCc3ccncc3)O[C@H]2CO)c1	-3.0	-1	6	-0.4	i
Cc1noc(C)c1S(=O)(=O)N(C)C[C@H]1Oc2ccc(NC(=O)C3CC3)cc2CC(=O)N([C@H](C)CO)C[C@@H]1C	-2.9	3	4	-0.3	i
COc1cccc(NC(=O)N(C)C[C@H]2Oc3cc(-c4cccc(C(=O)N(C)C)c4)ccc3S(=O)(=O)N([C@@H](C)CO)C[C@@H]2C)c1	-25	-1	2	-1.1	i
C[C@H](NC(=O)[C@@H]1[C@@H](CO)[C@@H]2Cn3c(ccc(-c4ccncc4)c3=O)[C@H]1N2C)c1ccccc1	-1.2	-2	-8	-1.8	i
C/C=C/c1ccc2c(c1)O[C@@H](CN(C)Cc1ccncc1)[C@H](C)CN([C@@H](C)CO)S2(=O)=O	8.0	-20	-42	-6.3	i
CSc1ncccc1C(=O)NNC(=O)c1csc(N2CCOCC2)n1	-3.4	11	13	1.2	i
COc1ccc(S(=O)(=O)Nc2ccc3c(c2)C(=O)N([C@H](C)CO)C[C@H](C)[C@H](CN(C)S(=O)(=O)c2ccccc2)OCCCC[C@H](C)O3)cc1	-4.1	0	9	-2.4	i
O=C(Nc1ccccc1F)N[C@@H]1CC[C@@H](CCNC(=O)C2CCC2)O[C@@H]1CO	-2.0	-4	-7	1.5	i
C[C@@H]1CN([C@@H](C)CO)C(=O)c2cc(NC(=O)CCN3CCOCC3)ccc2O[C@H]1CN(C)S(=O)(=O)c1ccc(Cl)cc1	0.2	-2	0	0.4	i
O=C(Cc1ccccn1)NCC[C@@H]1CC[C@H](NC(=O)Nc2ccccc2)[C@H](CO)O1	0.9	1	2	-3.0	i
O=C(NC1Cc2ccccc2C1)[C@@H]1[C@@H](CO)[C@@H]2Cn3c(cccc3=O)[C@@H]2N1C(=O)c1cnccn1	0.1	1	8	-1.7	i
COc1cccc(S(=O)(=O)Nc2ccc3c(c2)C(=O)N(C)C[C@@H](OC)[C@@H](C)CN[C@H](C)CO3)c1	-1.5	3	5	-0.6	i
COc1ccc(OC)c(CN2C(=O)CN(S(C)(=O)=O)CC2(C)C(=O)NC(C)C)c1 (configuration not stated)	-0.1	22	16	3.1	i
Cc1ccc(S(=O)(=O)N[C@@H]2CC[C@@H](CCNC(=O)C3CC3)O[C@H]2CO)cc1	-2.8	0	9	-1.2	i
CC(C)NC(=O)Nc1ccc2c(c1)C(=O)N([C@@H](C)CO)C[C@H](C)[C@@H](CN(C)C(=O)Nc1ccc(F)cc1)OCCCC[C@H](C)O2	-2.6	0	-2	0.7	i
C[C@@H]1CN([C@H](C)CO)S(=O)(=O)c2ccc(C#CC3CCCC3)cc2O[C@@H]1CN(C)S(C)(=O)=O	3.3	-1	-15	19	i
CC(C)C#Cc1ccc2c(c1)O[C@H](CN(C)Cc1cccnc1)[C@H](C)CN([C@H](C)CO)S2(=O)=O	7.5	0	-12	6.6	i
O=C(CN1CCOCC1)N[C@@H]1CC[C@@H](CCn2cc(C3CC3)nn2)O[C@@H]1CO	-0.4	3	12	-0.4	i
COc1ccc(S(=O)(=O)Nc2ccc3c(c2)CC(=O)N([C@@H](C)CO)C[C@@H](C)[C@H](CN(C)S(=O)(=O)c2ccc(C)cc2)O3)cc1	0.7	-2	-4	2.1	i
C[C@@H]1CN([C@H](C)CO)C(=O)c2cccc(NC(=O)c3cnccn3)c2O[C@H]1CN(C)Cc1ccncc1	-1.2	2	3	1.2	i
CCc1nc2c(OCc3c(C)noc3C)cccn2c1N(C=O)Cc1ccc(OC)cc1	-2.9	6	8	-2.2	i
O=C(NCC(F)(F)F)[C@@H]1[C@@H](CO)[C@@H]2Cn3c(cccc3=O)[C@@H]2N1C(=O)C1CCC1	-0.7	1	11	-1.9	i
Cc1noc(C)c1S(=O)(=O)Nc1ccc2c(c1)C(=O)N([C@@H](C)CO)C[C@@H](C)[C@@H](CN(C)Cc1ccncc1)OCCCC[C@@H](C)O2	1.4	1	7	0.6	i
O=C(C[C@H]1CC[C@@H]2[C@H](COC[C@H](O)CN2S(=O)(=O)c2cccc(F)c2)O1)Nc1ccc(-c2ccccc2)cc1	0.7	-24	-63	6.5	i
COc1ccc(S(=O)(=O)N=N/C=C2\C=CC=CN2O)cc1OC	1.6	3	8	6.5	i
O=S(=O)(c1ccccc1)N1C[C@@H]2[C@H](c3ccccc31)[C@H](CO)N2Cc1ccc2c(c1)OCO2	0.1	-12	-38	1.5	i
CCCCCCCCN1C(=O)[C@@H](CC(=O)NCCc2ccccc2OC)C[C@@]2(C(=O)OC)C1=C[C@H](C(C)(C)C)O[C@@H]2C	-0.1	8	0	0.5	i
C[C@@H]1CN([C@@H](C)CO)C(=O)c2cc(NC(=O)Cn3cnnn3)ccc2O[C@H]1CN(C)C(=O)Nc1ccc(C(F)(F)F)cc1	-2.5	-9	-8	-3.7	i
C[C@@H]1CN([C@H](C)CO)C(=O)c2cc(NC(=O)c3ccccc3)ccc2O[C@@H](C)CCCCO[C@H]1CN(C)C(=O)c1ccncc1	-2.8	-1	8	-2.4	i
OC[C@H]1[C@@H](c2ccccc2)C2(CN(Cc3nccs3)C2)N1CC1CCOCC1	-1.9	0	10	-1.2	i
C[C@@H]1CN([C@@H](C)CO)C(=O)c2cc(NC(=O)Cn3cnnn3)ccc2O[C@@H]1CN(C)S(=O)(=O)c1ccccc1	2.1	5	11	-0.5	i
CC1CN(c2ccccn2)C(C)CN1C(=S)Nc1ccccc1 (configuration not stated)	-0.7	5	4	0.8	i
O=C(C[C@@H]1C=C[C@H](NC(=O)C2CCOCC2)[C@H](CO)O1)NCC1CCCCC1	-1.7	-3	-8	-0.1	i
CCC(=O)N1CCCCN2[C@H](C1)[C@@H](c1ccc(C#CCOC)cc1)[C@@H]2CO	-0.1	11	7	0.8	i
CNC[C@@H]1Oc2c(NS(=O)(=O)c3cccs3)cccc2C(=O)N([C@H](C)CO)C[C@@H]1C	-1.6	3	5	-1.0	i
C[C@@H]1CN([C@H](C)CO)C(=O)Cc2cc(NC(=O)CCCCCC(=O)Nc3ccccc3N)ccc2O[C@@H]1CN(C)C(=O)Nc1ccc(F)cc1	1.5	10	8	-0.2	i
COc1ccccc1NC(=O)N[C@@H]1CC[C@@H](CC(=O)N[C@@H](C)c2ccccc2)O[C@@H]1CO	-1.3	-5	5	0.1	i
CCC(=O)N1[C@H](CNC(=O)COC)[C@@H](c2ccc(-c3ccccc3)cc2)[C@@H]1CO	-2.4	-3	4	1.1	i
N#C[C@@H]1[C@H](c2ccccc2-c2ccccc2F)[C@H](CO)N1C(=O)c1cccc(F)c1	3.3	-10	-1	-3.2	i
C[C@@H]1CN([C@@H](C)CO)C(=O)Cc2cc(NS(=O)(=O)c3cn(C)cn3)ccc2O[C@@H]1CN(C)CC1CCCCC1	-4.5	4	1	-0.6	i
CC(=O)Nc1ccc(CN2C(=O)C(Cc3ccccc3)ON=C2c2cccc(F)c2)cc1 (configuration not stated)	0.6	-18	-27	-20	i
COc1ccc(S(=O)(=O)N(C)C[C@@H]2Oc3ccc(NS(=O)(=O)c4cccs4)cc3CC(=O)N([C@@H](C)CO)C[C@H]2C)cc1	-0.3	-2	-9	4.9	i

Compound activity deposited in PubChem BioAssay by Broad Institute.
